VDR inhibitor: inhibitors of human vitamin D receptor. 0.93% of 400,000 active. P11473. AID 504847. VDR-SRC2-3 peptide fluorescence polarization, 2 h. Potency, µM, inactives show max response, negative = inhibition, hits mostly inhibitors; active = well fitted inhibition curve with a large enough effect; inconclusive = small, poorly fitted or top-dose-only effect, or another doubt; inactive = no such curve, though single readings can be large or run the other way; note: series mostly up to about 120 µM
Target sequence (P11473 whole entry, looked up): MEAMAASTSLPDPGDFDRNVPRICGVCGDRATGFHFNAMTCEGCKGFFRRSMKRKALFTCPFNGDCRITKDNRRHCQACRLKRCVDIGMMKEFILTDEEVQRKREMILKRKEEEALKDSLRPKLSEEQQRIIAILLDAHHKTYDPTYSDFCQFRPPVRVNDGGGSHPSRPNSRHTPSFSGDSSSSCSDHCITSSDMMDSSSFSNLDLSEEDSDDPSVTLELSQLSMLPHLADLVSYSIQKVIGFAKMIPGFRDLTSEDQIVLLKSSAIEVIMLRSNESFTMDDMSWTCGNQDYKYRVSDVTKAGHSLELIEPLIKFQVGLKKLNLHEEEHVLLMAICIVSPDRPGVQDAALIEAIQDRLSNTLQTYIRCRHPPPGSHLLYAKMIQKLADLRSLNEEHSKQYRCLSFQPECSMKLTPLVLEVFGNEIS
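FP read-out; VDR + SRC2-3 coactivator peptide; 23 nl compound by pintool; 2 h RT incubation; reagents held at 4 deg C, protected from light.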
* hit, by the source's call; u = inconclusive. % is set by controls: 0 for no effect and ±100 for the full control effect; potency is the fitted concentration of half-maximal effect. Some of the compounds tested; rates above refer to the full screens.

VDR inhibitor | Structure
5.0% | O=c1c(Cc2ccc(F)cc2)c(O)ccn1C1CCCCC1
-7.7% | O=C(CCN1C(=O)c2ccccc2C1=O)Nc1ccccc1C(=O)N1CCOCC1
-24.2% | CC(=O)C1=C(O)C(=O)N(Cc2ccco2)C1c1cccc(F)c1 (stereo not given)
0.0% | Cc1nc(SC2CC(=O)N(c3ccc([N+](=O)[O-])cc3)C2=O)nc2c1CCCC2 (stereo not given)
-1.9% | CC(=O)c1cccc(NC(=O)c2ccc3c(c2)C(=O)N(Cc2cccnc2)C3=O)c1
6.2% | CCN(C(=O)COC(=O)CCNS(=O)(=O)c1ccccc1F)c1c(N)n(Cc2ccccc2)c(=O)[nH]c1=O
-19.3% | CCC(NC(=O)CCl)c1ccc(C)cc1 (stereo not given)
-16.6% | CCCOc1ccccc1C(=O)N(Cc1cccs1)C1CCS(=O)(=O)C1 (stereo not given)
-20.1% | O=c1[nH]c2c(Br)cnc([N+](=O)[O-])c2[nH]1
5.6% | CCOc1cc(C(=O)NCCC(=O)N2CCC3(CC2)NCCc2[nH]cnc23)cc(OCC)c1OCC
-2.5% | CCCCNc1nc2c(c(=O)n(C)c(=O)n2C)n1Cc1cccc(OC)c1
-3.2% | CCCCCCCOc1ccc(C2(C)NC(=O)NC2=O)cc1 (stereo not given)
-22.8% | O=C(c1ccccc1F)N1c2nc(-c3ccco3)nn2C2(CCCCC2)[C@@H]2CCCC[C@@H]21
-13.3% | COCCN1CCN(Cc2cn(C)nc2-c2ccc(Oc3ccccc3)cc2)CC1
-15.3% | O=C(CN1CCN(c2ccc(F)cc2)CC1)c1ccc(O)cc1O
-3.6% | COc1cc(/C=N/N2CCN(C3c4ccccc4-c4ccccc43)CC2)ccc1O
2.4% | O=C(CCCCn1ccc(=O)[nH]c1=O)Nc1ccc(C(=O)O)c(O)c1
-1.0% | O=C(CCN1C(=O)/C(=C\c2ccccc2)SC1=S)Nc1ccc(C(=O)O)cc1
-7.1% | COc1ccc(C(=O)n2nc(C)cc2Nc2ccccc2)cc1
22.3% | COc1cc(CNc2ccc3[nH]c(=O)[nH]c3c2)ccc1OCc1ccc(Cl)cc1

Reformatted: 6 of the compounds above
structure,VDR inhibitor
CCN(C(=O)COC(=O)CCNS(=O)(=O)c1ccccc1F)c1c(N)n(Cc2ccccc2)c(=O)[nH]c1=O,6.2%
CCC(NC(=O)CCl)c1ccc(C)cc1 (stereo not given),-19.3%
Cc1nc(SC2CC(=O)N(c3ccc([N+](=O)[O-])cc3)C2=O)nc2c1CCCC2 (stereo not given),0.0%
O=C(CN1CCN(c2ccc(F)cc2)CC1)c1ccc(O)cc1O,-15.3%
CCCCNc1nc2c(c(=O)n(C)c(=O)n2C)n1Cc1cccc(OC)c1,-2.5%
CCOc1cc(C(=O)NCCC(=O)N2CCC3(CC2)NCCc2[nH]cnc23)cc(OCC)c1OCC,5.6%

New compounds follow:
VDR inhibitor | Structure
5.6% | Cc1cc(NC(=O)CSc2nnc(-c3ccncc3)n2-c2ccccc2)no1
-4.4% | Cc1ccc(NC(=O)CNC(=O)c2ccc(Oc3ccccc3)cc2)nc1
2.1% | Cc1ccc(OCC(=O)Nc2ccc(-n3cnnn3)cc2)c(C)c1
-8.1% | O=C(NCC1CCCO1)c1ccc(Cl)c(F)c1F (stereo not given)
u | COc1ccc(-c2cc(C(F)F)n3ncc(C(=O)N4CCc5ccccc54)c3n2)cc1
u | COC(=O)c1c(-c2cccs2)csc1NC(=O)c1cc(OC)c(OC)c(OC)c1
-14.2% | O=C(NCc1cccc(F)c1)c1cccc2c1C(=O)c1ccc(Cl)cc1S2(=O)=O
-0.1% | CC(C)(C)OC(=O)C[C@@H]1C/C=C\C[C@@H](CC(=O)NCCO)C(=O)N[C@H](C(C)(C)C)COC1=O
-7.0% | CCN1CCN(S(=O)(=O)c2cc(C(=O)O)ccc2Cl)CC1
-4.4% | O=C(O)CSCC(=O)Nc1ccc(Br)c(C(F)(F)F)c1
-11.8% | CCOP(=O)(OCC)C(Nc1ccccc1)c1cc(OC)ccc1OC (stereo not given)
-10.0% | O=C(NC1CC(=O)N(c2cccc(F)c2)C1)N1CCN(C(=O)c2ccco2)CC1 (stereo not given)
-12.7% | CC(C)(C)OC(=O)[C@H]1[C@H](c2ccc([N+](=O)[O-])cc2)C2(C(=O)c3ccccc3C2=O)C2c3ccccc3C=NN21 (stereo not given in full)
-0.9% | O=C(N/N=C/c1ccncc1)c1cc2ccccc2o1
0.4% | O=C(Nc1ccc(-c2nc3ncccc3o2)cc1)c1ccc(Br)o1
-22.0% | Cc1cccc(C(C)C)c1NC(=O)CSc1cccc[n+]1[O-]
-6.2% | CCn1c(O)c(C=NC2CCCC2)sc1=S
1.2% | COc1ccc(CN(C(=O)CSc2nnc(-c3ccc(F)cc3)o2)c2ccc(F)cc2)cc1
-8.2% | COc1cc(OC)cc(C(=O)/C=C2\Sc3ccccc3N2C)c1
-6.1% | COc1ccc(/C(=N\Nc2ccccc2C(=O)O)c2ccccc2)cc1
-5.0% | COc1cc(CN2CCCCCC2)cc([N+](=O)[O-])c1O
16.9% | CC1CC(C)CN(C(=O)C2CC(=O)N(c3ccc(F)cc3)C2)C1 (stereo not given)
-20.8% | Cc1ccc(S(=O)(=O)N(CC(=O)NCC2CCCO2)c2cccc([N+](=O)[O-])c2)cc1 (stereo not given)
17.3% | Cc1cc(C(=O)Nc2nc3c(C)cccc3s2)c(C)o1
-13.6% | CCN(CC)c1ccc2cc(-c3nnc(-c4ccccc4)o3)c(=O)oc2c1
-5.7% | CCN(CC)S(=O)(=O)c1cccc(C(=O)OCC(=O)c2ccc3c(c2)NC(=O)CO3)c1
0.7% | CC12CCC(=O)N1C(C(=O)O)Cc1c2[nH]c2ccccc12 (stereo not given)
-23.4% | Nc1c(C(=O)O)sc2nc(-c3ccccc3)cc(-c3ccccc3)c12
-11.8% | O=C(NCc1ccco1)c1cc2cc3ccc(Cl)cc3nc2o1
9.0% | COc1ccc(C(=Cc2ccccc2)C(=O)O)cc1
-4.0% | Cc1ccc(C2(C)NC(=O)N(CC(=O)Nc3cc(S(=O)(=O)N4CCOCC4)ccc3C)C2=O)cc1 (stereo not given)
12.8% | CC(=O)Nc1cccc(NC(=O)CSc2ccc(C(F)(F)F)cc2[N+](=O)[O-])c1
-13.0% | CC1=CC(=O)C=C/C1=C(/c1ccc(O)cc1C)c1ccccc1S(=O)(=O)O
11.8% | COc1ccccc1CNC(=O)C1CCC(CNS(=O)(=O)c2ccc(NC(C)=O)cc2)CC1 (stereo not given)
-14.6% | Cc1[nH]n2c(=O)c(C#N)c(-c3ccccc3)nc2c1-c1ccccc1
13.4% | CCOc1ccc(C(=O)CCc2nc3ccccc3s2)cc1
-16.0% | CCOC(=O)c1cn(Cc2cccc(Cl)c2)c2cc(C)nn2c1=O
18.8% | Cc1cc(Br)cc(C)c1OCC(=O)NNC(=O)CCC(=O)NCc1ccccc1
-5.8% | COc1cc(C2NC(=O)N(C)C3=C2C(=O)N(c2ccccc2)C3)ccc1O (stereo not given)
2.1% | COc1ccc(NC(=O)c2ccc3nc(C)sc3c2)cc1
3.9% | CC1=C(C(=O)Nc2ccccc2C)C(c2ccccc2)NC(=O)N1 (stereo not given)
-8.5% | COC(=O)CC(N)c1ccc(OC)c2ccccc12 (stereo not given)
-12.3% | CC(C)Cc1nc2oc3c(Cl)ncnc3c2c2c1CCC2
-4.7% | COc1ccc(C(=O)CCC(=O)Nc2cccc(Cl)c2)cc1
-0.4% | O=c1c(-c2ccc(Cl)cc2)nc2cncnc2n1Cc1ccc(F)cc1
u | N#CC(C#N)=Cc1cn(-c2ncc(C(F)(F)F)cc2Cl)c2ccccc12
7.4% | CCNC(=O)C(=O)N/N=C/c1cc([N+](=O)[O-])ccc1O
-8.6% | C/C(=N\NS(=O)(=O)c1ccc([N+](=O)[O-])cc1)c1ccc2c(c1)OCO2
-11.9% | Cc1cc(C)c(NC(=O)C[N+](C)(C)CC(O)COc2cccc3ccccc23)c(C)c1 (stereo not given)
19.5% | Cc1ccccc1NC(=O)Cc1nnc(SCC(=O)Nc2ccccc2)n1C
-13.6% | COC(=O)c1c(NC(=O)COC(=O)CC(NC(C)=O)c2ccccc2)sc(C)c1C (stereo not given)
2.5% | CN1C[C@@H]2C[C@@H](c3cccn3-c3nccs3)N3CCC[C@@]23C1=O
-1.1% | Fc1ccccc1Nc1ncnc2c1nc1n2CCCCC1
4.7% | O=C(NCc1ccccc1)C1c2ccccc2Oc2ccccc21
4.1% | COc1ccc(C(=O)Nc2ccc(N3CCOCC3)c(C(F)(F)F)c2)cc1OC
-1.5% | COc1ccc(S(=O)(=O)NCCC(C)C)cc1OC
12.1% | c1ccc2c(c1)OCCOCCOCCOCCOCCOc1ccccc1OCCOCCOCCO2
6.7% | CCOc1ccc(NC(=O)c2cc(=O)[nH]c3ccccc23)cc1
-2.6% | COC(=O)C(/C=N/OCc1ccc([N+](=O)[O-])cc1)NC(=O)c1cccc(Cl)c1 (stereo not given)
2.1% | Cc1cc(=S)cc(C)n1CCCn1ccnc1

Next compounds
VDR inhibitor | Structure
-19.0% | NS(=O)(=O)c1ccc(CCNC(=O)c2ccc(Cl)c(S(=O)(=O)N3CCCCC3)c2)cc1
-3.0% | COc1cccc(-n2c(=O)c3c(C)c(C)sc3n(CC(=O)NCCc3ccc(OC)c(OC)c3)c2=O)c1
-6.6% | CC(NC(=O)CCn1nc(-c2ccc(Cl)cc2)ccc1=O)c1ccccc1 (stereo not given)
-9.6% | O=C(Nc1nnc(SCc2ccccn2)s1)C1CC(=O)N(c2ccc(F)cc2)C1 (stereo not given)
u | c1ccc(-c2ccc(N3CC[C@@]4(CCCNC4)C3)cc2)cc1
5.3% | O=C(CCSc1nnc(-c2ccc(O)cc2)o1)N1CCOCC1
-0.7% | COc1ccc(NC(=O)Cc2ccsc2)cc1S(=O)(=O)N1CCCCC1
-20.2% | CSc1ccc(CCNC(=O)CS(=O)(=O)Cc2nc(-c3ccccc3F)oc2C)cc1
-21.4% | COc1ccc(C2=NN(C(=S)Nc3ccccc3)C(c3ccccc3)C2)cc1 (stereo not given)
-2.4% | Cc1cccc(NC(=O)N2CCCC2C(=O)NCc2ccccc2)c1 (stereo not given)
u | Cc1sc2nc(C3CC3)nc(SCC(=O)N3CCc4ccccc4C3)c2c1C
-2.4% | COc1ccc(/C(N)=N/OC(=O)COc2ccccc2Cl)cc1
-4.3% | CCSc1ncc(Cl)c(C(=O)Nc2ccccc2F)n1
-7.2% | CCCCc1nc2cc(C(=O)N3CCCCC3CCO)ccc2o1 (stereo not given)
-11.1% | Cc1onc(-c2ccccc2Cl)c1C(=O)Nc1nc2c(s1)CCCC2
-15.7% | CCN1C(=NCCOC)N[C@@H](c2cccs2)C(C(=O)OC)=C1C
-18.3% | COc1cc(NC(=O)CCN2CCOCC2)cc(OC)c1
2.0% | CN(Cc1c(F)cccc1Cl)c1ccc(S(=O)(=O)N2CCOCC2)cn1
22.0% | O=S(=O)(Nc1cccc(-c2ccc3nncn3n2)c1)c1cccs1
3.8% | O=C(Nc1cc(C(F)(F)F)ccc1Cl)c1cc(-c2ccc3c(c2)OCCO3)on1

Rewritten as comma-separated lines: 6 of the compounds above.
smiles,VDR inhibitor
Cc1sc2nc(C3CC3)nc(SCC(=O)N3CCc4ccccc4C3)c2c1C,u
COc1ccc(/C(N)=N/OC(=O)COc2ccccc2Cl)cc1,-2.4%
CCSc1ncc(Cl)c(C(=O)Nc2ccccc2F)n1,-4.3%
CCCCc1nc2cc(C(=O)N3CCCCC3CCO)ccc2o1 (stereo not given),-7.2%
Cc1onc(-c2ccccc2Cl)c1C(=O)Nc1nc2c(s1)CCCC2,-11.1%
CCN1C(=NCCOC)N[C@@H](c2cccs2)C(C(=O)OC)=C1C,-15.7%

Following part.
VDR inhibitor | Structure
0.9% | COC(=O)c1ccc(C2c3c(oc4cc(C)c(C)cc4c3=O)C(=O)N2c2ccccn2)cc1 (stereo not given)
3.6% | O=C(NNC(=O)c1ccncc1)Nc1ccccc1
-12.0% | CCN(C[C@H]1N[C@@](CC)(C(=O)OC)[C@H]2C(=O)N(Cc3ccccc3)C(=O)[C@@H]12)C(=O)c1ccc(C)cc1
0.6% | O=S(=O)(c1ccc(F)cc1)N1CCN(C(=S)NCc2ccccc2)CC1
-5.0% | CCSc1ncnc2nc[nH]c12
-4.5% | CC(=O)Nc1cccc2ccc(O)cc12
-7.6% | CC(=O)NC(CC(=O)NNC(=O)C(C)Oc1ccccc1F)c1ccccc1 (stereo not given)
-8.2% | Cc1cccc(C)c1NC(=O)COC(=O)c1ccc([N+](=O)[O-])o1
1.0% | Cc1ccc(S(=O)(=O)N2CCN(C(=O)c3cc(S(=O)(=O)N4CCOCC4)c(Cl)cc3Cl)CC2)cc1
3.0% | Cc1cc(N2CCCC2=O)ccc1S(=O)(=O)Nc1c(C)nn(C)c1C
-4.2% | CCOc1ccc(CCNC(=O)CN2C(=O)COc3ccc(S(=O)(=O)N4CCCCCC4)cc32)cc1
-3.5% | CCCCn1c(CNC(=O)c2ccc(OC)cc2)nnc1SCC(=O)Nc1ccccc1
-4.7% | CN(C)S(=O)(=O)c1ccc(NC(=O)CN2CCOCC2)cc1
-15.4% | COc1cc(N)c(C(O)c2nccc3cc(OC)c(OC)cc23)cc1OC (stereo not given)
-1.0% | CC1(C)COC(c2ccc3c(c2)OCO3)OC1
5.3% | CC(=O)Nc1cc(NC(C)=O)cc(C(=O)OC(C)C(=O)Nc2ccc(S(=O)(=O)N3CCCC3)cc2)c1 (stereo not given)
-17.8% | COc1ccc(C2/C=C\CN(C(=O)C3CC3)[C@H](Cc3ccccc3)C(=O)N2Cc2ccc(F)cc2)cc1 (stereo not given in full)
5.5% | Cc1cc(-c2ccccc2)n2nc(-c3cccc(Br)c3)cc2n1
-14.4% | O=C1CSC(=Nc2ccc(O)cc2)N1c1ccc(O)cc1
6.7% | CC(=O)c1nc(N2C(=O)CC(Cc3cccc(C)c3)C2=O)sc1C (stereo not given)
-0.3% | Cc1[nH]c2ccccc2c1C(=O)CSC(=S)N(C)C
-13.4% | Cc1ccc(OCCCn2ccnc2)c([N+](=O)[O-])c1
15.6% | Cc1cccc(NC(=O)c2sc(NC(=O)c3ccco3)c(C#N)c2C)c1C
